# Screens (PubChem)
# LANA-nucl inh: LANA-nucleosome interaction inhibition; FITC-LANA1-23 / chicken nucleosome fluorescence polarization; stronger effect = lower value; z-score (test concentration not listed); 51,000 tested, 0.3% active;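 active means both repeat wells score below -2 in polarization z-score versus plate sample wells, excluding overly bright wells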;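 further: 100 nL library stock added to about 30 µL; numbers are from one replicate; some results filed as inactive read as strong as hits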
#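 test system = FITC-LANA peptide and chicken nucleosomes | amount = 240 nM purified chicken nucleosomes (480 nM peptide binding sites), final | reagent = 50 nM FITC-LANA1-23 probe | medium = TEN-BT buffer, pH 7.5 | doses = single compound addition by pin transfer, 100 nL per well | timing = 10–45 min, room temperature | detection = fluorescence polarization | repeats = duplicate plates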
# Ab BasE inh: BasE siderophore biosynthesis inhibition | purified BasE, fluorescence polarization binding displacement | inhibition, % (concentration not given with the values) | 84,000 tested, 0.1% active | AID 485350;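 active means both replicates above 25% with normal brightness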;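 further: 0% = negative plate control signal and 100% = positive plate control signal; stock transfer was 100 nL into about 30 µL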
# * = called active by the depositor; · = no result given; & = joins results of further samples. An excerpt. The share of hits here may be higher or lower than overall.
SMILES	LANA-nucl inh	Ab BasE inh
CCS(=O)(=O)C(=C(Nc1ccc(OC)cc1)Nc1ccc(OC)cc1)S(=O)(=O)CC	0.897	1.4
Cc1cc(C)c(C(=O)COC(=O)c2c(C)noc2C)cc1C	·	-5.3
O=C1CCn2cccc21	·	1.1
CCOC(=O)c1c(N)sc(N)c1C(=O)OCC	-0.28	-2.9
O=C(NCC(c1cccs1)N1CCOCC1)c1cc(F)cc(F)c1 (configuration not stated)	·	0.5
COc1cccc2c1c(NC(=O)CSCC(=O)O)nn2C	·	-0.1
Cn1c(N)c(C(=O)N/N=C/c2ccccc2)sc1=S	-1.22	2.5
O=C(COc1ccc2c(c1)[nH]c1ccccc12)NC1CC1	·	0.2
CN(C)c1ccc(C2Nc3ccccc3NC3=C2C(=O)CCC3)cc1 (configuration not stated)	-0.274	-0.8
COc1ccc(NC(=S)N/N=C/c2ccc(N3CCOCC3)o2)cc1	2.67	-24.5
Fc1c(F)c(F)c(OC(c2ccccc2)C(F)(F)F)c(F)c1F (configuration not stated)	-0.846	0.4
O=C(Cn1cnc2sc(-c3ccccc3)cc2c1=O)N1CCCC1	0.0515	0.8
Cn1c(N)c(C(=O)COC(=O)[C@@H]2CCCN2S(=O)(=O)c2ccc(Cl)cc2)c(=O)n(C)c1=O	·	1.8
CCOc1cccc(C(=O)Oc2cccc3ccc(C)nc23)c1	·	3.2
O=C(Cn1c(=O)sc2ccccc21)Nc1nncs1	0.363	3.4
COc1ccc(N(CC(=O)N2c3ccccc3CC2C)S(=O)(=O)c2c(C)noc2C)cc1 (configuration not stated)	0.904	1.9
C=CCn1c(C(C)NC(=O)c2ccccc2Cl)n[nH]c1=S (configuration not stated)	0.939	-1.2
O=C(COC(=O)Cn1nc(-c2ccccc2)oc1=O)Nc1ccc(F)cc1	·	0.6
CCOc1ccc(N(CC)S(=O)(=O)c2c(C)[nH]c(=O)[nH]c2=O)cc1	0.466	0.3
O=C(CCc1nc(-c2cccs2)no1)Nc1c(C(=O)N2CCN(c3ncccn3)CC2)oc2ccccc12	-0.321	0.8
CS(=O)(=O)N(Cc1nnc(-c2cccs2)o1)c1ccc(Cl)cc1F	·	-1.4
O=C(c1ccc(Cl)cc1)N1CCCC1	-0.141	-1.6
Cc1cc(C)nc(SCC(=O)C(C)(C)C)n1	2.08	-3.0
CC(C)(C)c1nnc2sc(SC/C(O)=C(\C#N)c3nc4ccccc4[nH]3)nn2c1=O	·	-1.4
CCOC(=O)c1cccc(NCN2C(=O)c3ccccc3C2=O)c1	-0.333	1.6
CC(=O)NCc1ccc(C(=O)COC(=O)c2oc3ccc(Br)cc3c2C)o1	·	1.8
Cc1nc(COC(=O)Cc2coc3cc4c(cc23)CCC4)cs1	·	-3.0
Cc1ccc(S(=O)(=O)NCC2CCC(C(=O)O)CC2)cc1 (configuration not stated)	·	-0.4
COC(=O)c1sc(SC)c(-c2ccn(S(=O)(=O)c3ccc(Cl)cc3)n2)c1C	·	-2.8
CC(C)C(Sc1nnc2sc3ccccc3n12)C(=O)NC(N)=O (configuration not stated)	·	-0.2

SMILES	LANA-nucl inh	Ab BasE inh
CCOC(=O)N1CCC(Nc2nc(-c3ccccc3)no2)CC1	0.1	2.2
COC(=O)c1ccc(COC(=O)c2ccc(S(=O)(=O)C(F)F)cc2)o1	·	-0.8
COc1ccc(C)cc1NCC(=O)Nc1ccc2c(c1)OCO2	·	3.5
COC(=O)c1ccc(C=C(C#N)C#N)n1-c1ccc(F)cc1	-0.004	0.3
Cn1ccnc1C(=O)c1ccc(Cl)c(S(=O)(=O)N2CCCCCC2)c1	·	1.9
O=C1CCCN1CN1CCCCC1	·	2.4
Cc1cc(-c2c(C(=O)Sc3ccccc3)c(C)nn2-c2cccc(C(F)(F)F)c2)no1	-0.609	-0.8
Nc1nnc(-c2cccc(Cl)c2Cl)c(N)n1	0.34&-0.003&0.116	·
O=Nc1[nH]c(O)c2cc(Br)ccc12	0.021	-0.5
COc1cc(/C=C/C(=O)OCC(=O)N2C(C)CCCC2C)ccc1O (configuration not stated)	·	1.8
Cc1ccc(C(=O)Sc2nc(C)cc(C)n2)cc1	·	-4.4
Cc1cc(C)c(C(=O)O)c(=O)[nH]1	1.03	-2.1
CC(C)CNC(=O)CCn1cnc2onc(-c3ccc(F)cc3)c2c1=O	3.08	-1.9
COc1ccccc1C(=O)NCCC(=O)Nc1cc(C(N)=O)cc(C(N)=O)c1	·	-1.3
O=C(N/N=C/c1ccc2c(c1)OCO2)C1CC1C(=O)N/N=C/c1ccc2c(c1)OCO2 (configuration not stated)	-0.186	0.5
O=C(Nc1ccccc1)N1CCN2C(=O)c3ccccc3C12c1ccccc1 (configuration not stated)	·	1.4
CCN(CC)CCC(=O)c1ccc(OC(C)C)cc1	-0.095	0.7
CCOc1cc(C(=O)OCC(=O)Nc2ccccc2Cl)ccc1OCC(=O)N1CCOCC1	·	0.8
O=C(O)c1ccc2c(c1)CCCC2	-0.56	-0.8
CC1(C)CC(=O)C2=C(C1)NC(SCC(=O)N1CCOCC1)=C(C#N)C2c1ccco1 (configuration not stated)	-0.542	-4.4
CCOc1ccc(/C=C2\SC(N3CCCC3)=NC2=O)cc1	·	-0.5
O=C(CNCCc1ccc2c(c1)OCCO2)NC1CCCCCC1	·	2.0
Cc1ccc(CC(=O)Nc2nccs2)cc1	-0.196	-0.8
COc1ccc(N2CCN(C(=S)c3ccccc3)CC2)cc1	0.913	-3.8
CS(=O)(=O)N1CCN(C(=S)Nc2cccc3ccccc23)CC1	0.138	-0.1
CC(=O)Nc1ccc(N2C(=O)CC(/C=C3/N(C)c4ccccc4C3(C)C)C2=O)cc1 (configuration not stated)	0.778	3.0
Cc1ccc(-c2nnn(CC(=O)N(Cc3ccccc3)C(C(=O)NC3CCCC3)c3ccco3)n2)cc1 (configuration not stated)	-0.638	2.9
O=C(OCC(=O)N1CCN(c2ccccc2)CC1)c1ccco1	·	0.7
CN1CCN(C(=O)NC2CCCCC2)CC1	0.129	3.6
NC(=O)Cn1nnc(-c2ccccc2N)n1	0.589	0.4

SMILES	LANA-nucl inh	Ab BasE inh
CN(C(=O)CSc1nncn1-c1ccccc1)C1CCCCC1	·	0.7
CC(C)C1Oc2ccccc2N(CC(=O)N(Cc2ccccn2)C2CC2)C1=O (configuration not stated)	0.702	-0.2
COc1ccc(S(=O)(=O)N/N=C(/C2CCCCC2)C(F)(F)F)cc1	0.688	-0.9
Cc1cccc(N2C(=O)CC(Sc3ncccc3C(=O)O)C2=O)c1C (configuration not stated)	0.375	-2.0
CC(C)N(C(=O)CSc1nnc(-c2ccc3c(c2)OCO3)n1C)C(C)C	-1.11	1.2
CCOc1ccc(OCCCC(=O)OCc2nnc3n(C)c(=O)c4ccccc4n23)cc1	·	-0.2
COC(=O)C(O)(NS(=O)(=O)c1ccccc1)C(F)(F)F (configuration not stated)	·	-0.1
O=C(COC(=O)/C=C/c1ccco1)Nc1nnc(-c2ccccc2)o1	·	0.1
O=C(Nc1ccc(F)cc1F)N1CCCN(c2ccc(C(F)(F)F)cn2)CC1	-1.42	·
Cc1ccc(S(=O)(=O)CCN2CCC(n3cccc3)CC2)cc1	·	3.2
CN1/C(=C\C(=O)CN2C(=O)NC3(CCCCC3)C2=O)C(C)(C)c2ccccc21	·	0.7
Cc1cc2cc(CN(Cc3ccco3)C(c3nnnn3C3CCCC3)C(C)C)c(=O)[nH]c2cc1C (configuration not stated)	-0.534	-0.7
Cc1cc(C)cc(-n2c(C)cc(/C=C3/C(=N)N4C=CSC4=NC3=O)c2C)c1	0.096	-1.0
CCN(CC)c1ccc(NC(=S)Nc2ccc(S(N)(=O)=O)cc2)cc1	-0.255	0.5
CCNc1nc(NC(C)C)nc(C(=O)O)n1	0.479	1.5
COc1ccc(C(=O)COC(=O)c2ccc3c(=O)n4c(nc3c2)CCC4)cc1OC	·	-0.3
O=C(O)C1=CN2CCS(=O)(=O)N=C2C=C1	·	1.9
CN(C1CCS(=O)(=O)C1)S(=O)(=O)c1ccc(Cl)cc1 (configuration not stated)	0.837	2.8
CCN(CC)S(=O)(=O)c1ccc(-c2ccc(/C=N/N=C3\NC(=O)C(CC(=O)Nc4ccccc4)S3)o2)cc1 (configuration not stated)	·	-2.4
Cc1nc2c(cc(O)c3ccsc32)s1	·	-0.3
Cc1cccc(OCC(=O)NC2CCCC2)c1	0.052	28.9*
CC(C)CCNC(=O)c1ccco1	-0.0555	0.6
COC(=O)/C=C1\SC(NC(=O)c2ccccc2)NC1=O (configuration not stated)	·	1.9
O=C(O)c1ccccc1C(=O)OCCN1CCOCC1	·	2.0
O=C(Nc1cc(Cl)sc1Cl)N1CCOCC1	0.355	·
O=S(=O)(NCC1COc2ccccc2O1)c1ccc(N2CCOCC2)nc1 (configuration not stated)	·	2.8
O=C(CC1CCCCC1)NCCN1CCOCC1	0.359	1.1
CCc1ccc(NC(=O)CSC2=C(C#N)C(c3ccco3)C(C(N)=O)=C(C)N2)cc1 (configuration not stated)	-0.543	2.4
CC1CCCCN1C(=O)c1cnc2n(c1=O)CCS2 (configuration not stated)	-0.407	0.6
C#CCn1cc(/C=N\NC(=O)COc2cccc3cccnc23)c2ccccc21	1.6	-0.6

molecule,LANA-nucl inh,Ab BasE inh
Cc1cc(C)n(/N=C/c2ccccc2O)c(=O)c1,·,3.1
COC(=O)c1c(C)n(-c2ccc(OC)cc2)c2ccc(O)cc12,-0.471,1.7
COc1ccc(OC)c(NC(=O)CC(Cc2ccccc2OC)C(=O)O)c1 (configuration not stated),0.261,2.9
CCCCC1(COC(=O)Nc2cccc(Cl)c2)C(=O)N(c2ccccc2)N(c2ccccc2)C1=O,·,-1.9
COC(=O)c1c(C)[nH]c(C)c1C(=O)c1ccccc1Cc1ccccc1,-0.0195,2.0
O=S(=O)(c1ccccc1C(F)(F)F)N1CCN(c2ncccn2)CC1,·,0.8
Oc1cc2ccsc2c2ccccc12,0.396,0.7
CCOC(=O)c1c(NC(=O)c2ccccc2C(=O)O)sc2c1CCCC2,·,-2.8
COC(=O)CSc1nnc(Nc2ccccc2C)s1,·,-2.9
NCc1cccc(Oc2ccccc2)c1,0.245,-19.2

# Gathered by group, the entries above containing a Cl atom
molecule,LANA-nucl inh,Ab BasE inh
Cn1c(N)c(C(=O)COC(=O)[C@@H]2CCCN2S(=O)(=O)c2ccc(Cl)cc2)c(=O)n(C)c1=O,·,1.8
C=CCn1c(C(C)NC(=O)c2ccccc2Cl)n[nH]c1=S (configuration not stated),0.939,-1.2
CS(=O)(=O)N(Cc1nnc(-c2cccs2)o1)c1ccc(Cl)cc1F,·,-1.4
O=C(c1ccc(Cl)cc1)N1CCCC1,-0.141,-1.6
COC(=O)c1sc(SC)c(-c2ccn(S(=O)(=O)c3ccc(Cl)cc3)n2)c1C,·,-2.8
Cn1ccnc1C(=O)c1ccc(Cl)c(S(=O)(=O)N2CCCCCC2)c1,·,1.9
Nc1nnc(-c2cccc(Cl)c2Cl)c(N)n1,0.34&-0.003&0.116,·
CCOc1cc(C(=O)OCC(=O)Nc2ccccc2Cl)ccc1OCC(=O)N1CCOCC1,·,0.8
CN(C1CCS(=O)(=O)C1)S(=O)(=O)c1ccc(Cl)cc1 (configuration not stated),0.837,2.8
O=C(Nc1cc(Cl)sc1Cl)N1CCOCC1,0.355,·
CCCCC1(COC(=O)Nc2cccc(Cl)c2)C(=O)N(c2ccccc2)N(c2ccccc2)C1=O,·,-1.9

# Next part.
molecule,LANA-nucl inh,Ab BasE inh
O=C(COC(=O)C1CCCCC1C(=O)N1CCc2ccccc21)NCc1ccco1 (configuration not stated),·,1.9
O=C(c1c(O)c2ccccc2oc1=O)C1CC1,0.568,-0.8
Cc1ccc2[nH]c3c(=O)n(CC(=O)N4CC(C)CC(C)C4)ncc3c2c1 (configuration not stated),·,-4.7
CC(COc1ccc2c(c1)OCO2)NC(=O)c1c(F)cccc1F (configuration not stated),-1.9,1.4
NC(=S)c1ccc(-c2ccno2)s1,-0.034,3.0
Cc1nc2ccccc2nc(C)c1=NOCC(=O)Nc1ccc(S(=O)(=O)N2CCOCC2)cc1,·,-5.8
CC(C)N1CCc2nc(SCC(=O)Nc3cccc(Cl)c3)[nH]c(=O)c2C1,-1.72,0.4
CN(C)C(CN)c1ccco1 (configuration not stated),2.11,0.0
Cc1oc2nc[nH]c(=O)c2c1C(=O)NC1CCCCCC1,·,-1.5
OC(c1ccccc1)c1ccc(Cl)s1 (configuration not stated),0.293,-1.0

molecule,LANA-nucl inh,Ab BasE inh
Nc1ccc(-c2nc3c(Cl)cccc3[nH]2)cc1,-1.52,3.1
COc1ccc(CN2CC(C)OC(C)C2)cc1 (configuration not stated),-0.879,1.4
O=C(Cn1nnc(-c2ccccc2NC(=O)c2cnccn2)n1)Nc1ccc2c(c1)OCCO2,0.107,-0.7
COc1cc(-c2nnc(SCC(=O)N3CCCC3)o2)cc(OC)c1OC,-0.125,0.2
CCOC(=O)C1=C(CN2CCOCC2)NC(=O)NC1c1ccc(Cl)cc1 (configuration not stated),0.032,2.8
Cn1c(SCC(=O)N2CCCC2=O)nc2ccccc21,·,3.0
CC(C)n1c(=O)[nH]c2cc(C(=O)Nc3ccccc3N3CCCC3)ccc21,-0.976,0.9
COC(=O)C1C(=O)C2=C(CC1C)NC(C)=C(C(=O)OC1CCCC1)C2c1ccc(C)o1 (configuration not stated),-0.259,-0.8
CC(C)(C)c1cc2nc(C(F)(F)F)cc(NN)n2n1,-1.16,1.6
